# Vaccinia mCherry: vaccinia inhibition (mCherry reporter); Potency, µM (highest dose often 36.5 µM), inactives show top-dose activity change, negative = inhibition, actives largely listed as inhibitors; 310,000 compounds, 0.63% hits; Vaccinia virus mCherry reporter infection, fluorescence; about a quarter of the inactives have no number; active = well fitted inhibition curve with a large enough effect; inconclusive = small, poorly fitted or top-dose-only effect; inactive = no such curve, though single readings can be large or run the other way; tested in A549 cells; further: nearly all actives have a fitted effect of over 35% in size; inactives centre near -10
# VACV Venus inh: vaccinia inhibition (Venus reporter). Vaccinia virus Venus reporter expression, fluorescence. Potency, µM (doses to about 36.5 µM), for inactives: at the highest dose activity change, negative = inhibition, hits mostly inhibitors. 330,000 compounds, 0.46% hits; active means well fitted inhibition curve with a large enough effect; inconclusive means small, poorly fitted or top-dose-only effect; inactive means no such curve, though single readings can be large or run the other way; tested in A549 cells; further: nearly all actives have a fitted effect of over 30% in size; inactives centre near -10
# * = called active by the depositor; i = inactive; ? = inconclusive; nt = no result given; & = joins results of further samples; [ ] = dose if it differs, or a comment. On the % scale 0 is the no-effect control and ±100 the full control effect; potency means the concentration at half of the fitted maximal effect.
Structure,Vaccinia mCherry,VACV Venus inh
O=C(Cn1c(=O)n(-c2ccccc2)c(=O)c2sc3ccccc3c21)N1CCCC1,-6%,-3%
COc1ccc(-n2c(SCC(=O)NCC3CCCO3)nc3c(c2=O)SCC3)cc1 (configuration not stated),-8%,-7%
CSCC[C@H](NC(=O)Nc1ccccc1C)C(=O)O,4%,-2%
COc1ccc(Cl)cc1NC(=O)Nc1c[nH]c(=O)[nH]c1=O,-11%,1%
CCCCCn1nc(C(=O)OCC(=O)c2c(N)n(C)c(=O)n(C)c2=O)c2ccccc2c1=O,i,-16%
Cc1ccc(CNC(=O)Cn2c(=O)oc3ccccc32)o1,-11%,3%
Cc1cc(C(=O)NNC(=O)CN2C(=O)NC(C)(c3ccccc3)C2=O)c(C)o1 (configuration not stated),-12%,-7%
O=c1[nH]c(NNC(=S)NC2CCCCC2)nc2c1C1(CCCC1)Cc1ccccc1-2,-21%,-20%
Cc1ccc(NC(=O)C(OC(=O)c2cnc(C)cn2)c2ccccc2)c([N+](=O)[O-])c1 (configuration not stated),-18%,-18%
CNc1nc(-c2ccccc2)cc(C(F)(F)F)c1C#N,nt,-11%
O=C1CC2(CCN(C(=O)c3ccccc3Br)CC2)Oc2ccccc21,-18%,-12%
CC(=O)NCC1CCCN(c2nc3nonc3nc2N(C)Cc2ccccc2)C1 (configuration not stated),-14%,-10%
S=C(NCc1ccco1)Nc1ccc2c(c1)OCCO2,-5%,-1%
CCCCN1C(N)=NC[C@@H]1Cc1ccccc1,-25%,-10%
COc1cccc(CNC(=O)C2CCN(c3nnc(-n4c(C)ccc4C)s3)CC2)c1OC,-9%,-5%
Cc1ccc(CNC(=O)CN2CCN(Cc3ccc(F)cc3)C2=O)cc1,-5%,-5%
Cn1c(=O)c2c(ncn2CC(=O)N2CCOCC2)n(C)c1=O,nt,-8%
Cc1ccc2c(c1)[nH]c1c(=O)n(CCN3CCCCC3)cnc12,nt,-22%
CCCCN1CC2([N+](=O)[O-])C=CC(=O)C([N+](=O)[O-])(C1)C2CC(=O)c1ccccc1 (configuration not stated),-13%,-4%
COc1ccc(C(=O)NCCn2cc(SCC(=O)Nc3nnc(C)s3)c3ccccc32)cc1,-13%,-12%
CCOC(=O)CNc1nc(Cl)nc(Nc2ccc(C)cc2)n1,-15%,-3%
COc1cc(NC(C)CCCNC(C)C)c2ncccc2c1OC (configuration not stated),i,-5%
Nc1ccc(C(=O)NCC2(c3ccccc3)CCCC2)cc1,-8%,-9%
COc1ccc(N(C(=O)/C=C\C(=O)Nc2ccc(Cl)cc2)C(C(=O)NCc2ccco2)c2ccc(C)cc2)cc1 (configuration not stated),-24%,-19%
Cc1cccc(OCCCCn2nnc3sc4c(c3c2=O)CCC(C)C4)c1 (configuration not stated),4%,9%
C/C(=N\NC(=O)c1ccc(O)cc1)c1cccc(NC(=O)c2ccccc2C)c1,-6%,-22%
O=C1C2C3CCC(C3NCc3ccccc3)C2C(=O)N1Cc1ccccc1 (configuration not stated),-8%,-6%
O=C(NC(=S)Nc1ccc(CN2CCCCC2)cc1)c1cccc(OCc2ccccc2)c1,-13%,-14%
COc1ccc(-n2nc(C(=O)N3CCN(c4cccc(C)c4C)CC3)c3c4ccccc4n(C)c3c2=O)cc1,-10%,-6%
CCOc1ccc(C(=O)N/N=C/c2ccccc2[N+](=O)[O-])cc1,-14%,-18%
COC(=O)Cc1ccc(NC(=O)c2ccccc2Br)cc1,-2%,5%
CN[C@H](C)C(=O)NC[C@H]1O[C@@H](n2cnc3c(N)ncnc32)[C@H](O)[C@@H]1O,i,-6%
C=CCc1cccc2cc(C(=O)Nc3cccc(Cl)c3)c(=O)oc12,3%,4%
Cc1ccc(Nc2nc(-c3cccnc3)nc3ccccc23)cc1,-6%,?
COC1C=CC=C(C)C(=O)NC2=CC(=O)C(N)=C(CC(C)CC(OC)C(O)C(C)C=C(C)C1OC(N)=O)C2=O (configuration not stated),?,-40%
COc1ccc(S(=O)(=O)NCCC(=O)Nc2ccc(C)cc2)cc1,-3%,-1%
Nc1c(S(=O)(=O)c2cccs2)c2nc3ccccc3nc2n1/N=C/c1cccc(O)c1,?,11µM*
CCCC(O)(c1ccccc1)C(c1ccccc1)c1ccccn1 (configuration not stated),-10%,-2%
Cc1cccc(C(=O)Oc2coc(CSc3nnc(NC(=O)C4CC4)s3)cc2=O)c1,-11%,-11%
CCCCNC(=O)c1onc(CSc2cccc3ccccc23)c1C(=O)O,i,-7%

# Ordered by length of the SMILES (smallest number first): six of the compounds above
Structure,Vaccinia mCherry,VACV Venus inh
COc1cc(NC(C)CCCNC(C)C)c2ncccc2c1OC (configuration not stated),i,-5%
Cc1ccc(Nc2nc(-c3cccnc3)nc3ccccc23)cc1,-6%,?
O=C1C2C3CCC(C3NCc3ccccc3)C2C(=O)N1Cc1ccccc1 (configuration not stated),-8%,-6%
CCOc1ccc(C(=O)N/N=C/c2ccccc2[N+](=O)[O-])cc1,-14%,-18%
Cc1cccc(C(=O)Oc2coc(CSc3nnc(NC(=O)C4CC4)s3)cc2=O)c1,-11%,-11%
CN[C@H](C)C(=O)NC[C@H]1O[C@@H](n2cnc3c(N)ncnc32)[C@H](O)[C@@H]1O,i,-6%

# Later entries:
Structure,Vaccinia mCherry,VACV Venus inh
Cc1ccnc(NC(=O)CCC(=O)N(CC(=O)NC2CCCCC2)c2cccc(C)c2C)c1,nt,5%
CN(c1ccccc1)c1nc(N)c([N+](=O)[O-])c(NCc2ccccc2)n1,-6%,?
CCOc1ccc(NC(=O)CC2C(=O)N(C)C(=S)N2CCCc2ccccc2)cc1 (configuration not stated),i,-9%
N#Cc1c(-c2ccc(Br)cc2)cc(-c2cccnc2)nc1N,-7%,-17%
COc1ccc(-c2nc3scc(CCNS(=O)(=O)c4c(C)noc4C)n3n2)cc1,-8%,-9%
CCOC(=O)c1ccc(N2C(=O)c3n[nH]c(-c4cccs4)c3C2c2ccc(C(C)C)cc2)cc1 (configuration not stated),-25%,-21%
Cc1ccc(S(=O)(=O)N2CCOCC2)cc1C(=O)N1CCN(c2ncccn2)CC1,-9%,-17%
COCCCn1c(SCC(=O)NC(C)(C)C)nnc1-c1ccccc1,0%,-9%
Cc1oc(-c2ccc(-c3ccccc3)cc2)nc1CN(C)C1CCOC1 (configuration not stated),?,-12%
CC(NC(=O)c1ccccc1)c1nnc(SCC(=O)NC2=NCCS2)n1C (configuration not stated),-23%,-9%
CCN(C[C@H]1N[C@@](CC)(C(=O)OC)[C@H]2C(=O)N(C)C(=O)[C@@H]12)C(=O)Nc1ccc(C(F)(F)F)cc1,-15%,-4%
O=C(/C=C/c1ccccc1)NNC(=O)C1CC1,i,-3%
O=C(CSc1oc(-c2ccccc2)nc1S(=O)(=O)c1ccc(Cl)cc1)NC1CCCCC1,i,1%
COc1ccc(S(=O)(=O)NC2CCCC2)cc1C(N)=O,-14%,-11%
COc1cccc(-c2nc(-c3ccc4c(c3)-c3ccccc3S4(=O)=O)c(-c3ccccc3)[nH]2)c1OC,nt,-19%
CCOc1ccc(NS(=O)(=O)c2ccc3nc(-c4ccccc4)[nH]c3c2)cc1,?,-25%
CCCCCOC(=O)c1cc(=O)[nH]c2ccccc12,nt,?
C[C@@H]1CN([C@@H](C)CO)C(=O)CCCn2cc(nn2)CO[C@H]1CN(C)S(=O)(=O)c1ccccc1F,i,-10%
CCCCN(CCCC)c1nc2ccccc2nc1C(C#N)C(=O)NCCCOC (configuration not stated),nt,4%
CCOC(=O)/C=C/C(=O)Nc1ccc(S(=O)(=O)Nc2nccs2)cc1,-13%,-4%
N#CC(C#N)=C(N)Nc1cccc(Cl)c1,-14%,-14%
CCOc1ccc(C(=O)Nc2nnc(C3=COCCO3)o2)cc1,-7%,?
Cc1ccc(-c2csc(Nc3ccc(S(N)(=O)=O)cc3)n2)o1,-20%,-9%
COC(=O)C1(C)COP(=O)(NC23CC4CC(CC(C4)C2)C3)OC1 (configuration not stated),-15%,-5%
COc1ccc(OC)c(/C=N/NC(=O)c2cnccn2)c1,-14%,-10%
CCC(=NCc1ccco1)c1c(O)[nH]c(=O)[nH]c1=O,-14%[1.46 µM],-16%
COc1ccc2nc(NC(=O)CCn3cccc3)sc2c1,-2%,-14%
CC(C)(C)c1ccc(C(=O)Nc2cc(-c3nc4ccccc4o3)ccc2Cl)cc1,-14%,0%
Cc1cccc(C)c1NC(=O)CN1C(=O)NC(C)(C2CC2)C1=O (configuration not stated),-12%,-3%
[O-]/[N+](=C\c1ccccc1)[C@@H]1CCCC[C@@H]1/[N+]([O-])=C/c1ccccc1,nt,0%
O=S(=O)(c1cccc2nsnc12)N1CCN(c2ccccc2F)CC1,-10%,3%
CCOCC(=O)NCc1ccc2c(c1)OCO2,nt,-7%
CCn1c(SCC(=O)NC2CC2)nnc1-c1cccc(OC)c1,i,-9%
O=C1CCN(Cc2ccccc2)C(=S)N1,-6%,-11%
O=C(NC(Cc1c[nH]c2ccccc12)C(=O)O)/C(=C\c1ccc2c(c1)OCO2)NC(=O)c1ccccc1 (configuration not stated),-20%,-12%
COc1ccc(Cl)cc1Nc1nc(NCCO)nc(N2CCCC2)n1,-13%,-17%
C=CC[C@@H](CC(=O)N(CCO)Cc1ccccc1)C(=O)N[C@H](COC(=O)[C@@H](CC=C)CC(=O)OC(C)(C)C)c1ccccc1,i,?
O=[N+]([O-])c1cnn2cc(Br)cnc12,-6%,-12%
CS(=O)(=O)Nc1ccc(C(=O)Nc2ccc(S(=O)(=O)Nc3nccs3)cc2)cc1,i,-10%
O=C(CN1CCN(S(=O)(=O)c2ccc(F)cc2)CC1)Nc1cccc(C(F)(F)F)c1,i,-3%
C/C(CC(=O)Nc1cc(Cl)ccc1Cl)=N\NC(N)=S,?,?
COc1cc(Br)ccc1C1C(C(=O)Nc2ccc(C)cc2C)=C(C)Nc2nnnn21 (configuration not stated),-17%,-26%
COc1ccccc1CCNC(=O)c1ccc2nc[nH]c2c1,i,-9%
CCOC(=O)c1[nH]c(C)c(CCC(=O)N2CCN(c3ccccc3)CC2)c1C,-18%,-12%
CCc1sc(C(=O)Nc2cc(Cl)ccc2N2CCCCC2)cc1C,-1%,2%
COc1ccc(C(=O)NC(=S)NNC(=O)c2ccccc2C)cc1,-14%,?
Nc1c(-c2nc(-c3ccc4c(c3)OCO4)cs2)c2ccccn2c1C(=O)c1ccccc1,-26%,-18%
Cn1c(CCC(=O)Nc2cc(S(C)(=O)=O)ccc2Cl)nc2cc(S(=O)(=O)N3CCOCC3)ccc21,-7%,-8%
NC(=O)C1CCN(C2=C(NS(=O)(=O)c3ccc(Br)cc3)C(=O)c3ccccc3C2=O)CC1,?,-17%
Cn1c(CCN2CCOCC2)nc2cc(NS(=O)(=O)c3ccccc3)ccc21,-23%,-17%
COc1ccc(CNC(=O)CCNC(=O)c2ccc(C(C)(C)C)cc2)cc1OC,i,-11%
CC(=O)N(CN1C(=O)c2ccc([N+](=O)[O-])cc2C1=O)c1ccc(F)cc1,i,-9%
Cc1ccc(OCCC(=O)OCC(=O)Nc2ccc(F)cc2)cc1,i,-9%
Cc1cc(C)c(OCC(=O)Nc2nnn(C)n2)c(Br)c1,-17%,-10%
CCOc1ccc(S(=O)(=O)N2CCN(C(=O)c3cccnc3)CC2)cc1,-11%,6%
COC(=O)C[C@H]1c2ccccc2S(=O)(=O)N1Cc1ccc(OC)cc1,i,4%&-10%
CC1=C(C(=O)OCc2ccccc2)C(c2ccccc2)NC(=O)N1CCCCCC(=O)O (configuration not stated),10%,-2%
CCOC(=O)C1(Cc2cccc(OC)c2)CCN(CC2CC=CCC2)CC1 (configuration not stated),-28%,-15%
COC(=O)c1ccc(CC2(C)C(=O)Nc3ccc(-c4cccc(C(F)(F)F)c4)cc32)o1 (configuration not stated),-1%,?
CN(CC(=O)N1CCN(c2ccccn2)CC1)S(=O)(=O)c1ccc2ccccc2c1,i,-2%

# Complete entries, quoted from the list. Values in the order: Vaccinia mCherry | VACV Venus inh
# `Cc1ccc(NC(=O)C(OC(=O)c2cnc(C)cn2)c2ccccc2)c([N+](=O)[O-])c1` (configuration not stated) across the screens: -18% | -18%
# `O=C1CCN(Cc2ccccc2)C(=S)N1` across the screens: -6% | -11%

# Further entries.
Structure,Vaccinia mCherry,VACV Venus inh
O=C(NCC1CCCN1S(=O)(=O)c1cccs1)c1ccc(Cl)cc1 (configuration not stated),-21%,-10%
CC(=O)c1cc(C#N)c(SCC(=O)OC(C)C)nc1C,-1%,-3%
O=C(CC1(O)C(=O)N(CCc2ccccc2)c2ccc(Br)cc21)c1ccccc1 (configuration not stated),-1%,-16%
COC(=O)CNC(=O)CN(c1ccc(OC)cc1OC)S(=O)(=O)c1ccccc1,-7%,-15%
CN(C1CCCCC1)S(=O)(=O)c1ccc(-c2ccccn2)s1,i,-18%
Cc1[nH]c2c(C(F)(F)F)cccc2c1CCN,nt,-9%
CC1CCN(C(=O)CSCc2ccc(Cl)cc2)CC1,nt,-24%
CN(C)c1ccc(/C=C/c2ccc3ccccc3n2)cc1,12%,-5%
Cc1ccc(CSCC(=O)N(C)CC(=O)Nc2ccc(Cl)c(Cl)c2)cc1,-29%,?
CC1=NN(C(=O)c2ccncc2)C(=O)C1N=Nc1ccc2ccccc2c1 (configuration not stated),-22%,-14%

# High-throughput results: PubChem, National Center for Advancing Translational Sciences (NCATS)
